# Ecoli rRNA inh: selective bacterial rRNA inhibition in E. coli; GFP signal change (wild-type ribosome), % (no concentration beside the values); E. coli WT GFP vs humanized-ribosome RFP mutants, fluorescence, 24 h; hits give low values; DMSO median 0, no signal -100; actives 1.6% (n = 350,000);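 active means significant combined selectivity score with lowered wild-type GFP, culture density cut under 30%, mutant RFP and density less affected; inactive means any of these conditions unmet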; further: one replicate is shown; some compounds called inactive have numbers as strong as hits
# FGF22 binding: binders of recombinant human FGF22 by thermal shift; calls only at 9.99 µM; actives 1.5% (n = 340,000); SYPRO orange fluorescence; percent of sucrose octasulfate shift, DMSO zero;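 active means melting point raised past a set limit in the mean and every replicate; three in four hits are not shown here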
# Target sequence (Q9HCT0 whole entry, looked up): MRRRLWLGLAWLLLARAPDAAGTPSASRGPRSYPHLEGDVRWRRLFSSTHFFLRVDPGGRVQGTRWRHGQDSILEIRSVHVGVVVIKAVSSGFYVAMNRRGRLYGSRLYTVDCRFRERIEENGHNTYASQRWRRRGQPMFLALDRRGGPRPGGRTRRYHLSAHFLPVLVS
# MLL AF4-AF9 inh: MLL-AF4/AF9 protein interaction inhibition. P42568. AlphaScreen, biotin-AF4 peptide binding to FLAG-AF9. inhibition, % at 10 µM. actives 0.47% (n = 350,000);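 active means every replicate reaching a set inhibition limit, whatever the replicate mean, cut at about 25% in these data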;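 further: 0% = plate neutral control median and 100% = total signal loss; the record names both 10 and 1 µM as test concentration; the first replicate is given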
# Target sequence (P42568 whole entry, looked up): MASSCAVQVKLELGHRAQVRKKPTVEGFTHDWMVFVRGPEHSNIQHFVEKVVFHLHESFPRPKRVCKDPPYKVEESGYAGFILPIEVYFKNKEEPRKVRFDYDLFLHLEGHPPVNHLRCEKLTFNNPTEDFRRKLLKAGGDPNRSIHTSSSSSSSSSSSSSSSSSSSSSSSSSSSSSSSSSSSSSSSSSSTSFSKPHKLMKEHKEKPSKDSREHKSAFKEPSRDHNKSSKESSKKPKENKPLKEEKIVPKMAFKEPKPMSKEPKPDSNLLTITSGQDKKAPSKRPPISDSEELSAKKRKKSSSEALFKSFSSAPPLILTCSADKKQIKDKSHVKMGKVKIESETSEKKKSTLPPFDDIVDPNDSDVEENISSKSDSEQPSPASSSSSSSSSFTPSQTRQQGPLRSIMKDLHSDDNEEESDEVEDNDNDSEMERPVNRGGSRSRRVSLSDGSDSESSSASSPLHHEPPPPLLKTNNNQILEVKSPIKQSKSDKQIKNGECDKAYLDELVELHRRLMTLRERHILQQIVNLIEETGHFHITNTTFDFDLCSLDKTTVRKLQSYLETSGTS
# Ecoli rRNA inh OD600: second read-out of Ecoli rRNA inh, no call of its own (marks repeat the call); OD600 change, %; measured here: OD600 growth;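 optical density of the mix in the first replicate; 0 = DMSO median and -100 = no signal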
# Ecoli rRNA inh RFP: recorded beside Ecoli rRNA inh, whose call it bears; RFP signal change, %; measured here: RFP humanized mutant strains;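 first replicate; 0 = DMSO median and -100 = no signal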
# * marks the source's active call; other numbers are inactive results; i = inactive; & = joins results of further samples.
Ecoli rRNA inh,Ecoli rRNA inh OD600,Ecoli rRNA inh RFP,FGF22 binding,MLL AF4-AF9 inh,Structure
3.0,7.1,-0.7,i,-4.9,C[C@@H]1CN([C@@H](C)CO)C(=O)c2cccc(NC(=O)c3ccncc3)c2O[C@@H]1CN(C)Cc1ccncc1
-19.6,-43.1,-5.0,i,2.6,O=C(Nc1ccc(F)cc1)N1C[C@H]2[C@@H](c3ccccc31)[C@H](CO)N2Cc1ccccc1Cl
-11.3,-48.2,2.5,i,2.6,CCc1csc(N2[C@@H](C#N)[C@@H](c3ccc(-c4ccc(F)cc4)cc3)[C@@H]2CO)n1
1.2,-3.5,-2.4,i,-10.0,COCC(=O)N1CC(=O)N2[C@@H](CO)[C@@H](c3ccc(-c4ccccc4F)cc3)[C@@H]2C1
-5.6,-16.6,12.2,i,3.9,O=C(NC(c1ccc(F)cc1)c1ccc2ccccc2n1)C1CCN(Cc2ccc(Oc3ccccc3)cc2)CC1 (centres undefined)
4.7,19.9,-4.4,i,-3.9,COCC#Cc1ccc([C@H]2[C@@H](CO)N3C(=O)CN(C(=O)c4ccncc4)C[C@H]23)cc1
24.9,11.9,2.7,i,-2.0,COC(=O)c1ccc2cc(F)cc(C)c2n1
-1.8,0.6,-3.7,i,25.9*,COc1ccc2c3c([nH]c2c1)[C@H](CO)N(C(=O)NC(C)C)CC31CN(Cc2ccccc2)C1
6.7&16.5,9.4&16.1,-0.4&-0.3,i,0.4&0.3&1.4,C[C@H]1CN([C@@H](C)CO)S(=O)(=O)c2ccc(-c3ccc(C#N)cc3)cc2O[C@H]1CN(C)C(=O)CN(C)C
-4.9,-1.1,-0.4,i,-6.9,O=C(CC1CCCC1)NNC(=O)c1ccccc1O
-2.7,-4.9,3.4,i,-0.7,COC(=O)C[C@H]1CC[C@@H]2[C@@H](COc3ccc(NS(=O)(=O)c4ccc(F)cc4)cc3C(=O)N2C)O1
19.1,12.2,2.1,i,-3.4,COc1ncnc2c1ncn2CCCN1CCN(c2ncccn2)CC1
5.6,10.9,1.1,i,-2.0,O=C(COC(=O)c1ccc(S(=O)(=O)N2CCOCC2)cc1)NCc1ccco1
1.0,2.3,0.8,i,-1.2,CO[C@H]1CN(C)C(=O)c2cc(NC(=O)CC(F)(F)F)ccc2OC[C@@H](C)N(C(=O)C2CC2)C[C@H]1C
15.4,26.9,0.7,i,0.3,CC(=O)N1CCOCC1c1cc(C(=O)Nc2ccccc2)no1 (centres undefined)
11.2,-7.0,-4.5,i,-4.4,COc1ccc(C(=O)Nc2ccccc2-c2nnn(CC(N)=O)n2)cc1
-8.2,-11.0,7.2,i,1.4,CN(C)S(=O)(=O)c1cccc(NC(=O)CNc2cccc(S(=O)(=O)N3CCCCC3)c2)c1
0.7,-0.6,2.0,i,0.6,C[C@@H]1CN([C@H](C)CO)C(=O)Cc2cc(NC(=O)CCN3CCOCC3)ccc2O[C@@H]1CN(C)S(=O)(=O)c1ccccc1
3.1,2.2,-1.0,i,-1.4,Cc1noc(C)c1NC(=O)Nc1ccc2c(c1)C(=O)N([C@H](C)CO)C[C@H](C)[C@H](CN(C)C(=O)Nc1ccc(C(F)(F)F)cc1)OCCCC[C@@H](C)O2
-0.6,1.4,-0.4,i,-3.3,C[C@H](CO)N1C[C@H](C)[C@H](CN(C)C(=O)Nc2ccccc2)Oc2ncc(C3=CCCC3)cc2C1=O
3.0,5.2,-0.1,i,1.0,O=C(C[C@H]1C=C[C@H](NS(=O)(=O)c2ccc(F)cc2)[C@H](CO)O1)NCc1ccncn1
1.0,7.0,-0.5,i,1.5,C[C@H]1CCCCO[C@H](CN(C)C(=O)c2ccccc2)[C@@H](C)CN([C@@H](C)CO)C(=O)c2cc(NC(=O)CCCN(C)C)ccc2O1
1.4,-4.9,-1.3,i,1.6,N#C[C@H]1N[C@H](CO)[C@@H]1c1ccc(C#CC2CCCCC2)cc1
2.2,2.4,2.2,i,-3.2,C[C@H](NC(=O)C[C@H]1C[C@H]2c3cc(NC(=O)NC4CCCC4)ccc3O[C@H]2[C@@H](CO)O1)c1ccccc1
4.1,-0.2,0.8,i,-0.4,COc1ccc(NC(=O)N(C)C[C@H]2Oc3ccc(NC(=O)NC4CCCCC4)cc3C(=O)N([C@@H](C)CO)C[C@@H]2C)cc1
-0.6,1.3,0.8,i,-4.0,C[C@@H]1CN([C@H](C)CO)C(=O)Cc2cc(NS(=O)(=O)c3ccc(Cl)cc3)ccc2O[C@H]1CN(C)Cc1ccc(Cl)c(Cl)c1
-23.9,-49.5,2.8,i,2.5,COc1ccccc1Cc1c(-c2ccc(C#N)cc2)nc2ccc(C)cn12
-1.3,0.0,-1.3,i,-2.6,C[C@H]1CN([C@@H](C)CO)C(=O)c2cc(NC(=O)Cc3ccccc3)ccc2O[C@@H]1CN(C)C(=O)Nc1ccc2c(c1)OCO2
6.8,7.1,2.3,i,-1.2,CNC[C@@H]1Oc2ccc(NS(=O)(=O)c3ccccc3)cc2C(=O)N([C@H](C)CO)C[C@@H]1C
-1.8,-0.1,1.1,i,2.2,C[C@@H]1CCCCO[C@@H](CN(C)C(=O)Nc2ccc3c(c2)OCO3)[C@H](C)CN([C@@H](C)CO)C(=O)c2cc(NC(=O)CCC(F)(F)F)ccc2O1

# Eight compounds from above, ordered by heavy-atom count, highest first.
Ecoli rRNA inh,Ecoli rRNA inh OD600,Ecoli rRNA inh RFP,FGF22 binding,MLL AF4-AF9 inh,Structure
0.7,-0.6,2.0,i,0.6,C[C@@H]1CN([C@H](C)CO)C(=O)Cc2cc(NC(=O)CCN3CCOCC3)ccc2O[C@@H]1CN(C)S(=O)(=O)c1ccccc1
-5.6,-16.6,12.2,i,3.9,O=C(NC(c1ccc(F)cc1)c1ccc2ccccc2n1)C1CCN(Cc2ccc(Oc3ccccc3)cc2)CC1 (centres undefined)
6.7&16.5,9.4&16.1,-0.4&-0.3,i,0.4&0.3&1.4,C[C@H]1CN([C@@H](C)CO)S(=O)(=O)c2ccc(-c3ccc(C#N)cc3)cc2O[C@H]1CN(C)C(=O)CN(C)C
-0.6,1.4,-0.4,i,-3.3,C[C@H](CO)N1C[C@H](C)[C@H](CN(C)C(=O)Nc2ccccc2)Oc2ncc(C3=CCCC3)cc2C1=O
6.8,7.1,2.3,i,-1.2,CNC[C@@H]1Oc2ccc(NS(=O)(=O)c3ccccc3)cc2C(=O)N([C@H](C)CO)C[C@@H]1C
1.2,-3.5,-2.4,i,-10.0,COCC(=O)N1CC(=O)N2[C@@H](CO)[C@@H](c3ccc(-c4ccccc4F)cc3)[C@@H]2C1
-11.3,-48.2,2.5,i,2.6,CCc1csc(N2[C@@H](C#N)[C@@H](c3ccc(-c4ccc(F)cc4)cc3)[C@@H]2CO)n1
11.2,-7.0,-4.5,i,-4.4,COc1ccc(C(=O)Nc2ccccc2-c2nnn(CC(N)=O)n2)cc1

# Continuation:
Ecoli rRNA inh,Ecoli rRNA inh OD600,Ecoli rRNA inh RFP,FGF22 binding,MLL AF4-AF9 inh,Structure
-6.2,-20.2,2.3,i,1.8,COc1cccc(NC(=O)C2(C)CCN2Cc2ccc3ccccc3c2)c1 (centres undefined)
-3.5,-4.1,-4.0,i,-5.9,CO[C@@H](CN(C)Cc1cc(F)ccc1F)[C@H](C)CN([C@@H](C)CO)S(=O)(=O)c1ccc(Cl)cc1
2.4,6.3,-2.0,i,-2.1,COC(=O)[C@H]1[C@H](CO)[C@H]2Cn3c(ccc(-c4ccccc4OC)c3=O)[C@H]2N1C(=O)c1cnccn1
7.0,8.2,-2.0,i,0.5,COc1ccccc1S(=O)(=O)N(C)C[C@@H]1Oc2cc(C#CCC3CCCC3)ccc2S(=O)(=O)N([C@H](C)CO)C[C@@H]1C
-1.4,6.8,-3.8,i,-2.2,O=C(CC(F)(F)F)N1C[C@H]2[C@@H](c3ccccc31)[C@@H](CO)N2C(=O)Cc1ccccc1
-3.1,-1.7,1.9,i,-0.8,O=C(NCCc1ccccc1)[C@H]1[C@H](CO)[C@H]2Cn3c(cccc3=O)[C@@H]1N2C(=O)C1CCCC1
-3.2,-9.1,1.6,i,0.1,C[C@@H]1CN([C@H](C)CO)C(=O)c2cccc(NC(=O)C3CC3)c2O[C@H]1CN(C)Cc1ccc2c(c1)OCO2
-2.7,0.5,-0.5,i,-0.8,C[C@@H]1CN([C@H](C)CO)C(=O)c2cccc(NC(=O)Nc3ccc(F)cc3)c2O[C@H]1CN(C)C(=O)NC1CCCCC1
-0.1,10.4,-2.0,i,-1.2,O=C(C=CC=Cc1ccccc1)c1ccc([N+](=O)[O-])cc1
-2.9,6.0,39.5,i,1.2,COC(=O)c1c(-c2ccc(OC)cc2)c2c(c3c4ccccc4n(S(=O)(=O)c4ccc(C)cc4)c13)C(=O)N(C)C2
-0.1,-7.0,2.2,i,1.1,COCC(=O)N(C)C[C@H]1Oc2cc(-c3ccc(F)cc3)ccc2S(=O)(=O)N([C@@H](C)CO)C[C@H]1C
-1.8,-1.7,-0.2,i,0.8,COC(=O)[C@@]1(C(C)C)N=C(c2cc(OC)c(OC)c(OC)c2)[C@]2(O1)C(=O)N(C)c1ccccc12
-3.3,-9.2,6.0,i,3.8,CC(C)C#Cc1ccc2c(c1)O[C@@H](CN(C)C(=O)c1ccccc1)[C@@H](C)CN([C@H](C)CO)S2(=O)=O
-3.9,-1.7,-1.2,i,-2.6,C[C@@H]1CN([C@@H](C)CO)C(=O)c2cccc(NC(=O)Nc3ccccc3)c2O[C@H]1CN(C)C(=O)Nc1ccc(F)cc1
-58.6,-79.4,-14.8,i,14.6,OC[C@@H]1[C@@H](c2ccc(C#CC3CCCC3)cc2)[C@@H]2CN(CCC(F)(F)F)CCCCN12
11.3,8.4,-2.0,i,-2.5,CC1=C(C(=O)N2CCOCC2)CC(CC(=O)NC2CC2)C(=O)N1CCC1=CCCCC1 (centres undefined)
6.5,8.4,-4.4,i,-0.9,CC(=O)Nc1ccc(NC(=O)C2(C)Cc3c(-c4ccc(NC(C)=O)cc4)ccnc3O2)cc1 (centres undefined)
-0.7,-3.6,-0.4,i,3.5,C[C@H]1CN([C@@H](C)CO)C(=O)c2cccc(NC(=O)Nc3cccc4ccccc34)c2O[C@@H]1CN(C)C(=O)NC1CCCCC1
1.1,-0.8,-2.5,i,-2.7,C[C@H](CO)N1C[C@H](C)[C@H](CN(C)S(=O)(=O)c2cn(C)cn2)OCc2cn(nn2)CCCC1=O
-1.9,-4.1,0.1,i,-1.1,COc1ccc(-c2cnc3c(c2)C(=O)N([C@H](C)CO)C[C@H](C)[C@@H](CN(C)C(=O)C2CCC2)O3)cc1
-4.2,-24.1,24.4,i,1.7,CO[C@@H](CN(C)Cc1cc(F)ccc1F)[C@@H](C)CN([C@@H](C)CO)S(=O)(=O)c1ccc(Cl)cc1
1.7,9.3,-2.1,i,5.7,C[C@H]1CN([C@@H](C)CO)C(=O)c2c(c3ccccc3n2C)-c2ccccc2CO[C@@H]1CN(C)S(=O)(=O)c1ccccc1F
-61.6,-81.6,-17.8,i,-31.9,O=C(Nc1ccc2c(c1)OCCO2)C(c1ccncc1)n1c(=O)c(-c2cc3ccccc3[nH]2)nc2ccccc21 (centres undefined)
1.1,8.2,2.3,i,-2.6,Cc1ccc(S(=O)(=O)N(C)C[C@@H]2OCCCC[C@@H](C)Oc3ccc(NS(=O)(=O)c4ccc(Cl)cc4)cc3C(=O)N([C@H](C)CO)C[C@H]2C)cc1
-1.6,-2.0,-1.1,i,-2.8,CO[C@@H]1CN(C)C(=O)c2cc(NC(=O)CC(F)(F)F)ccc2OC[C@@H](C)N(CC2CC2)C[C@H]1C
0.1,1.0,0.8,i,-0.6,CCCC(=O)Nc1ccc2c(c1)C(=O)N(C)C[C@H](OC)[C@H](C)CN(C(=O)c1ccccc1F)[C@@H](C)CO2
3.0,3.2,2.9,i,-4.9,C[C@@H]1CN([C@@H](C)CO)C(=O)c2cc(NC(=O)CCCN(C)C)ccc2O[C@H]1CN(C)C(=O)Nc1ccc(F)cc1
0.8,3.1,0.8,i,-0.4,C[C@@H]1CCCCO[C@@H](CN(C)Cc2ccncc2)[C@H](C)CN([C@@H](C)CO)C(=O)c2cc(NS(=O)(=O)c3cn(C)cn3)ccc2O1
-3.0,1.7,2.5,i,-3.8,Cc1cc(C(=O)Nc2cccc3c2O[C@@H](CN(C)Cc2ccc(Cl)c(Cl)c2)[C@@H](C)CN([C@@H](C)CO)C3=O)n(C)n1
1.3,-5.2,-2.1,i,-1.9,COc1ccc(S(=O)(=O)Nc2ccc3c(c2)[C@H]2C[C@H](CC(=O)O)O[C@@H](CO)[C@H]2O3)cc1
-6.2,-16.6,0.3,i,2.7,C[C@@H]1CN([C@H](C)CO)C(=O)Cc2cc(NS(=O)(=O)c3cccs3)ccc2O[C@@H]1CN(C)Cc1ccc(C(=O)Nc2ccccc2N)cc1
-4.1,-1.4,0.9,i,4.2,CC(C)NC(=O)Nc1cccc2c1O[C@H](CN(C)C(=O)Nc1cccc3ccccc13)[C@@H](C)CN([C@H](C)CO)C2=O
2.2,-21.8,2.9,i,8.5,Cc1noc(C)c1NC(=O)N(C)C[C@H]1Oc2cc(C#CCC3CCCC3)ccc2S(=O)(=O)N([C@@H](C)CO)C[C@@H]1C
2.0,9.9,-1.7,i,-3.8,CCOc1ccc(OCCC(=O)Nc2ccccc2C(=O)NC2CC2)cc1

# Assay outcomes as filed in PubChem.

# Not all compounds are listed. The share of hits here may be higher or lower than overall.
